Screens: PubChem, National Center for Advancing Translational Sciences (NCATS)
StopGo FLuc = Primary qHTS Assay for Foot and Mouth Disease Virus Antivirals against NCGC Sytravon and CBC Compound Libraries: Firefly Luciferase Signal | HEK cells with a luciferase reporter of 2A StopGo recoding | Potency, µM (top dose mostly 57.5 µM), inactives show top-dose signal change, negative = less light | 0.23% of 120,000 active | AID 1745856, 2022; active = well fitted falling curve with a large enough effect; inconclusive = small, poorly fitted or top-dose-only effect; inactive = no such curve, though single readings can be large or run the other way; further: nearly all actives have a fitted effect of over 60% in size; overnight with compound
2A Renilla = Primary qHTS Assay for Foot and Mouth Disease Virus Antivirals against NCGC Sytravon and CBC Compound Libraries: Renilla Luciferase Signal; HEK cells with a luciferase reporter of 2A StopGo recoding; Potency, µM (doses to about 57.5 µM), for the others: at the highest dose signal change, negative = less light; 0.32% of 120,000 active; active means well fitted falling curve with a large enough effect; inconclusive means small, poorly fitted or top-dose-only effect; inactive means no such curve, though single readings can be large or run the other way; further: nearly all actives have a fitted effect of over 55% in size; overnight with compound
Active calls of the source: *; ? = inconclusive; [ ] = dose if it differs, or a comment. On the % scale 0 is the no-effect control and ±100 the full control effect; potency means the concentration at half of the fitted maximal effect. An excerpt. The share of hits here may be higher or lower than overall.

smiles,StopGo FLuc,2A Renilla
CC1=C(C(=O)Nc2c(C)cc(C)cc2C)C2(CCN(C(C)C)CC2)OC1=O,-16%,-5%
CCCCN(C)CCNC(=O)CN1C(=O)CSc2ccc(S(=O)(=O)N3CCCCC3)cc21,-12%,-4%
O=C(N/N=C/C1CC=CCC1)c1cccs1 (stereo not given),183%[activator],19%
CCOC(=O)c1cccc(NC(=O)CN2C(=O)c3ccccc3Sc3ncccc32)c1,9%,-2%
CC(=O)c1c(C)n(S(=O)(=O)c2ccc(Cl)cc2)c2ccc(NS(=O)(=O)c3ccc(Cl)cc3)cc12,-21%,-12%
CC1CCCCN1C(=O)CSc1nc2ccccc2n1CCC#N (stereo not given),5%,-9%
Cc1ccc(CN2CCCN(c3ccc(C(=O)N4CCOCC4)cc3)C2=O)cc1,8%,12%
CC(C)(C)C(=O)N1CCN(Cc2ccco2)CC1,19%,-2%
COc1cccc2cc(S(=O)(=O)c3ccc(F)c(C)c3)c(=O)oc12,-4%,-1%
Cc1cccc(C)c1NC(=O)c1cc2sccc2n1Cc1ccc(F)cc1,-24%,-4%
Nc1nc2ccccc2n1Cc1ccc(F)cc1,14%[11.5 µM],-24%
CC(C)NC(=O)C(C)Sc1nccc(C(F)(F)F)n1 (stereo not given),-3%,10%
COCCn1c(SCC(=O)c2ccc(C)cc2)nc2cc(C(=O)NC3CCCC3)ccc2c1=O,-17%,-11%
COc1cccc(/C=C2\Oc3cc(OS(C)(=O)=O)ccc3C2=O)c1,85%[activator],27%
CC(C)c1nc2cc(NC(=O)c3ccc(=O)[nH]n3)ccc2o1,267%[activator],28%
Cc1cc(NC2CC(C)(C)NC(C)(C)C2)nc(C(C)C)n1,-29%,-3%[1.06 µM]
CC(=O)c1cccc(NC(=O)[C@H](Cc2ccccc2)N2Cc3ccccc3C2=O)c1,17%,46%[activator]
CCC1(C)CC(CCNCc2ccccc2)(C(C)C)CCO1 (stereo not given),-12%,7%
Cc1cccc(/C=C(/C(=O)N2CCCCC2)c2cccs2)c1,-5%,128%[activator]
COc1ccc(-n2cnc3cc(C(=O)NCCC4=CCCCC4)ccc32)cc1,31%[activator],48%[activator]

The list goes on.
smiles,StopGo FLuc,2A Renilla
CCOc1c(Br)cc(/C=C/C(=O)c2ccc(OC)cc2)cc1OC,14%,6%
CC(C)c1ccc(S(=O)(=O)c2cnc(SCC(=O)Nc3ccc4c(c3)OCCO4)[nH]c2=O)cc1,-16%,-6%
COC(=O)c1ccccc1NC(=O)CSc1nc(C)c(Cl)c(C)c1C#N,-15%,8%
Nc1nc(N)nc(SCc2cccc(C(F)(F)F)c2)n1,0%,-4%
O=c1c2ccccc2nc(-c2ccccc2)n1CCCN1CCOCC1,-6%,-12%
COCCNC(=O)c1ccc(C(C)C)cc1,154%[activator],4%
COc1ccc(CCNc2nc3ccccc3nc2C(=O)OCC(C)C)cc1OC,1%,10%
CCCCCCCC1C(=O)CC(c2ccccc2)NC1c1ccccc1 (stereo not given),17%,17%
COc1ccc(COc2ccc(C(=O)O)cc2OC)cc1Br,81%[activator],0%
CC(=O)c1ccc(NC(=O)c2nc(-c3ccccc3)n(-c3ccc(Cl)cc3)n2)cc1,3%,-5%
NCCCCOc1ccc(OCc2ccccc2)cc1,0%,-17%
Cn1nc(C(=O)OCC(=O)Nc2cc(C(F)(F)F)ccc2Cl)c2ccccc2c1=O,-3%,-6%
CN(C)S(=O)(=O)c1ccc(NC(=O)c2nc(-c3ccccc3)n(-c3ccccc3)n2)cc1,-11%,-9%
CC(C)(C)N1Cc2nnn(CC3CCCCC3)c2-c2ccccc2S1(=O)=O,1%,124%[activator]
COCCn1c(N2CCC(Cc3ccccc3)CC2)nc2c1c(=O)[nH]c(=O)n2C,3%,-7%
COc1ccc(NC(=O)c2nc(-c3ccccc3)oc2C)cc1,79%[activator],27%
Cc1cccc(-c2nc(CSc3nc(C)c(CCO)c(=O)[nH]3)c(C)o2)c1,-3%,-11%
COc1ccccc1Oc1nc2c(c(=O)n(Cc3ccccc3F)c(=O)n2C)n1C,0%,1%
CCc1ccc(C(=O)CSc2n[nH]c(C)n2)cc1,22%,3%
CSCCC(NS(=O)(=O)c1ccc2c(c1)oc(=O)n2C)C(=O)NCCc1ccc(C)cc1 (stereo not given),18%,24%

Three structures from above, sorted by count of non-hydrogen atoms, ascending.
smiles,StopGo FLuc,2A Renilla
CCCCCCCC1C(=O)CC(c2ccccc2)NC1c1ccccc1 (stereo not given),17%,17%
COc1ccccc1Oc1nc2c(c(=O)n(Cc3ccccc3F)c(=O)n2C)n1C,0%,1%
CN(C)S(=O)(=O)c1ccc(NC(=O)c2nc(-c3ccccc3)n(-c3ccccc3)n2)cc1,-11%,-9%

Following part:
smiles,StopGo FLuc,2A Renilla
CCOC(=O)N(C)[C@H]1C[C@H]2c3[nH]c4c(-c5cccc(C)c5)cccc4c3CCN2C[C@H]1[C@H](C)O,?,?
Cc1oc(-c2cccs2)nc1C(=O)N1CCOC(C)C1 (stereo not given),20%,-6%
CCC(C)(C)C1CCC(NC(=O)Cc2ccc(OC)c(OC)c2OC)CC1 (stereo not given),-17%,-15%
COc1ccc(OC)c(/C=N/O)c1,4%,4%
COc1ccc(C(=O)NCC(O)c2ccc(C)cc2)cc1 (stereo not given),124%[activator],19%
C=CCNC(=O)CN1CCN(c2nc3ccccc3o2)CC1,0%,12%
COC(=O)C(CC(C)C)NC(=O)Nc1ccc(C)cc1C (stereo not given),-6%,-15%
Cc1ccc(Cl)cc1NC(=O)c1cc(CN2CCCC2)on1,3%,-17%
CCCNc1c(NC(=O)Cc2ccc(OC)cc2)c(=O)oc2ccccc12,8%,13%
CCOc1ccc2nc(NC(=O)c3nc(SCc4ccccc4C)ncc3Cl)sc2c1,100%[activator],63%[activator]
COc1ccc(NC(=O)CSc2nc3c([nH]c4ccccc43)c(=O)n2-c2ccccc2)c(OC)c1,-10%,-8%
C=CCNc1oc(/C=C/c2cccs2)nc1C#N,46%[activator],?
CCCCCn1nc(C(=O)Nc2ccn(C)n2)c2ccccc2c1=O,0%,79%[activator]
CSc1cccc(N2CC(C(=O)Nc3cc(Cl)ccc3-n3cncn3)CC2=O)c1 (stereo not given),-15%,-24%
COc1ccc(-c2nc(C)c(CCNS(=O)(=O)c3ccc(F)cc3)s2)cc1OC,116%[activator],257%[activator]
N#Cc1cc2c(cc1C(=O)C1CC1)OCCO2,1%,1%
CCc1ccc(NC(=O)CSc2nc(C)c(C(=O)Nc3ccc(Cl)cc3)c(-c3ccc(OC)cc3)c2C#N)cc1,-6%,8%
CC(=O)NCc1nc2cccnc2n1Cc1ccccc1,-6%,-2%
CCNC(=O)c1sc2cc(C)ccc2c1Cl,194%[activator],7%
CCc1cc(=O)oc2cc(OCC(=O)N3CCCc4cc(OC)ccc43)ccc12,-10%,-3%

The list continues.
smiles,StopGo FLuc,2A Renilla
CCN(C(C)=O)c1cccc(-c2ccnc3c(C#N)cnn23)c1,-9%[11.5 µM],-2%
CC(=O)c1cnn(-c2cc(Nc3ccc(F)cc3)ncn2)c1C,18%,4%
c1csc(CNCCCn2ccnc2)c1,-1%,9%
CC1CCCN(c2oc(-c3ccc(Cl)cc3)nc2C#N)C1 (stereo not given),3%,-5%
O=C(c1cc(-c2ccc(Cl)cc2)n[nH]1)N1CCN(S(=O)(=O)c2ccc(Br)s2)CC1,-6%,-8%
Oc1ccc(C2(c3ccccc3)CCCCC2)cc1,30%,-3%
CCNC(=S)NNC(=O)C(C)(C)O,1%,-6%
Cc1cc(N2CCOCC2)nc2ccc(NC(=O)NCC(C)C)cc12,10%,4%
CCCCCOc1ccc(/C=C(/C#N)c2nc3ccccc3[nH]2)cc1OC,22%,-17%
CCCc1c(C)nc2ccc(C)cc2c1SCCC(=O)O,-4%,-1%
COc1ccc(NC(=O)c2cccc(-c3ccc(S(=O)(=O)N4CCCC4)cc3)c2)cc1OC,2%,4%
COc1cccc(-c2nc(S(=O)(=O)c3ccc(C)cc3)c(N3CCCCC3)o2)c1,1%,-8%
Oc1c(C(c2ccccc2Cl)N2CCC(O)CC2)sc2nc(-c3ccco3)nn12 (stereo not given),0%,63%[activator]
CCC(=O)NCC(c1ccc(Cl)cc1)N1CCN(C)CC1 (stereo not given),?,-7%
CC(=O)Oc1ccc2c(C)c(CCC(=O)NCc3nc(-c4ccccc4)no3)c(=O)oc2c1,12%,12%
Cc1ccc(-c2cnc(CCC(=O)NCc3ccc(F)cc3)o2)cc1C,23%,15%
O=C(CCC1N=C2c3ccccc3N=C(SCC(=O)Nc3ccc(F)cc3)N2C1=O)NCc1ccco1 (stereo not given),-8%,-10%
COc1ccc(C(=O)N2CC(C)CC(C)C2)cc1 (stereo not given),11%,18%
O=C(NC(c1ccccc1)C1CC1)c1ccoc1 (stereo not given),3%,2%
CCOc1ccc(C(C)NC(=O)CC2Sc3ccccc3NC2=O)cc1OCC (stereo not given),132%[activator],68%[activator]

Record cards, as listed above.
`CCCc1c(C)nc2ccc(C)cc2c1SCCC(=O)O` as listed: StopGo FLuc: -4%; 2A Renilla: -1%
`O=C(c1cc(-c2ccc(Cl)cc2)n[nH]1)N1CCN(S(=O)(=O)c2ccc(Br)s2)CC1` as listed: StopGo FLuc: -6%; 2A Renilla: -8%
`Oc1ccc(C2(c3ccccc3)CCCCC2)cc1` as listed: StopGo FLuc: 30%; 2A Renilla: -3%

The listing picks up, repeating the 5 entries before the break.
smiles,StopGo FLuc,2A Renilla
Cc1ccc(-c2cnc(CCC(=O)NCc3ccc(F)cc3)o2)cc1C,23%,15%
O=C(CCC1N=C2c3ccccc3N=C(SCC(=O)Nc3ccc(F)cc3)N2C1=O)NCc1ccco1 (stereo not given),-8%,-10%
COc1ccc(C(=O)N2CC(C)CC(C)C2)cc1 (stereo not given),11%,18%
O=C(NC(c1ccccc1)C1CC1)c1ccoc1 (stereo not given),3%,2%
CCOc1ccc(C(C)NC(=O)CC2Sc3ccccc3NC2=O)cc1OCC (stereo not given),132%[activator],68%[activator]
CC(OC(=O)c1cccc(S(=O)(=O)N2CCCCC2)c1)C(=O)N1CCCc2ccccc21 (stereo not given),-4%,98%[activator]
C=CCOC(=O)C(C#N)c1nc2ccccc2nc1N1CCN(c2ccccc2)CC1 (stereo not given),-10%,4%
COc1ccccc1CNC(=O)c1ccc(CSc2nc3ccncc3n2Cc2cccc(F)c2)cc1,-14%,0%
COCCNC(=O)CS(=O)Cc1nc(-c2cccc(C)c2)oc1C (stereo not given),8%,2%
Cc1ccc2ncc(C(=O)c3ccc(C)c(C)c3)c(S(=O)(=O)c3ccc(F)cc3)c2c1,-22%,-1%
Cc1c(C)n(Cc2ccccc2)c2ccc(C(=O)N3CCN(c4ccccc4F)CC3)cc12,-10%,1%
CC(=O)c1c(C)[nH]c(-c2csc(CC(=O)Nc3cccc(C)c3)n2)c1C,2%,4%
CCOc1ccc(CNC(=O)c2ccc3c(c2)N(Cc2ccccc2)CCS3)cc1,0%,122%[activator]
Cc1ccc2[nH]cc(C(C(=O)O)N3CCN(c4nsc5ccccc45)CC3)c2c1 (stereo not given),-18%,-19%
CCOc1ccc(C(NC(=O)c2cc(OC)c(OC)c(OC)c2)c2cc(Cl)c3cccnc3c2O)cc1 (stereo not given),3%,-15%
CCc1ccc(-c2cc(C)no2)cc1S(=O)(=O)Nc1cc(OC)c(OC)c(OC)c1,8%,1%
COc1ccc2c(=O)c(-c3ccc(OC)c(OC)c3)coc2c1,64%[activator],4%
COc1ccc(OC)c(NC(=O)CN2C(=O)c3ccccc3Sc3ccc(C(=O)N4CCCC4)cc32)c1,0%,24%
Cc1cccc(C(=O)NC(C)c2cccs2)c1I (stereo not given),3%,36%[activator]
CC1CCC(NC(=O)Cn2ncc3c4ccccc4n(Cc4ccc(F)cc4)c3c2=O)CC1 (stereo not given),-5%,-11%
CCOC(=O)Cn1c(=O)oc2cc(S(=O)(=O)N3CCN(c4ccc(F)cc4)CC3)ccc21,-1%,-2%
COC(=O)c1cnn(-c2ncnc3sc4c(c23)CCCC4)c1N,17%,14%
CC(c1nc2ccccc2s1)N(C)S(=O)(=O)c1cccc(C#N)c1 (stereo not given),21%,70%[activator]
CCc1ccccc1NC(=O)Cc1cn(C)c2ccccc12,19%,11%
CCOC(=O)c1c(C)n(-c2ccccc2)c2ccc(OC(=O)c3cccc(C)c3)cc12,-6%,-12%
Cc1ccc(Cc2nc3ccccc3nc2SCC(=O)N2CCCCC2C)cc1 (stereo not given),?,70%[activator]
COc1ccc(-n2c(C)c(C(C)=O)c3cc(OC(=O)c4ccc(C)cc4)ccc32)cc1,-20%,-17%
COc1ccccc1C(=O)c1cn(CC(=O)Nc2ccccc2F)c2nc(C)ccc2c1=O,-5%,3%
